# Source: PubChem
# HPGD inh: qHTS Assay for Inhibitors of HPGD (15-Hydroxyprostaglandin Dehydrogenase) | 15-hydroxyprostaglandin dehydrogenase [NAD(+)] (Homo sapiens), P15428 | purified HPGD, NADH fluorescence kinetic, PGE2 substrate | Potency, µM, for the others: top-dose activity change, negative = inhibition, usual class: inhibitors | actives 4.3% (n = 150,000) | AID 894, 2007; active = well fitted inhibition curve with a large enough effect (not every such curve was filed as active); inconclusive = small, poorly fitted or top-dose-only effect, or another doubt; inactive = no such curve, though single readings can be large or run the other way;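 also: top concentration of the series not given in the record; plate controls included wells without enzyme; inactives centre near -10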
# Target sequence (P15428 whole entry, looked up): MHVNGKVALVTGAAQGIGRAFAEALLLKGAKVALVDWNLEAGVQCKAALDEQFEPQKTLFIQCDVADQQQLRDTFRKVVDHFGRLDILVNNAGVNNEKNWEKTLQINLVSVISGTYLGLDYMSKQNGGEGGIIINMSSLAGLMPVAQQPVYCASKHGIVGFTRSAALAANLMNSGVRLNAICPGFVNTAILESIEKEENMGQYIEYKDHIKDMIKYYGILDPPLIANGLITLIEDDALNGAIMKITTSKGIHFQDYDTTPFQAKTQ
#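 NADH formation kinetics: reaction with 30 uM PGE2 and 1 mM NAD+ (final), 20 nM enzyme, Tris-HCl pH 8 with Tween 20, after 15 min compound preincubation at room temperature. Fluorescence change, last versus first of five reads.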
# Numbers without * were called inactive; u = inconclusive; & = joins results of further samples. % is scaled to controls: 0 for no effect and ±100 for the full control effect; potency is read from the fitted curve at half-maximal effect. A portion of the library; count on the stated rates, not on these rows.
SMILES,HPGD inh
Cc1ccc(C)c(Cn2c(=O)n(CCCC(=O)NCc3ccco3)c(=O)c3sccc32)c1,-3.8%
CC(=O)c1ccc(NC(=O)Oc2ccccc2)cc1,-11.6%
COc1ccc(C(CNC(=O)c2ccc(OCC3CCCO3)cc2)N2CCOCC2)cc1 (stereo unspecified),-0.7%
CCOc1ccccc1NC(=O)N1CCC(C(=O)c2ccc(F)cc2)CC1,-9.5%
CCOC(=O)c1cc2occc2n1CC(=O)N1CCCc2ccccc21,-16.0%
COc1cc(/C=N/NC(=O)C2c3ccccc3Oc3ccccc32)ccc1O,-7.3%
CCOC(=O)CCc1cccc2c1CCC2=O,-15.8%
COc1ccc(OC)c(/C=C/C(=O)N(C)CC(=O)Nc2cc(C)ccc2C)c1,u
CCC(C)Sc1nc2c(c(=O)[nH]c(=O)n2C)n1C (stereo unspecified),-21.1%
COC(=O)c1c(/N=C/NOCc2ccc(Cl)cc2)sc2c1CCN(c1ncc(C(F)(F)F)cc1Cl)C2,u
COc1ccccc1NC(=O)C1=C(C)NC2=C(C(=O)CCC2)C1c1ccc2c(c1)OCO2 (stereo unspecified),u
CS(=O)(=O)N1CCN(c2ccc([N+](=O)[O-])c(NCc3ccc(Cl)cc3)c2)CC1,-6.9%
O=C(O)CCC(=O)c1c[nH]c2ccccc12,-4.4%
CCOC(=O)C1=C(c2cccc(Oc3ccccc3)c2)NC(=S)NC1C (stereo unspecified),-25.6%
O=C(CCn1c(SCC(=O)c2ccccc2)nc2ccccc2c1=O)NCc1ccc(F)cc1,-4.6%
CCOC(=O)CSc1nc2ccc(N)cc2s1,u
CCN(CC)S(=O)(=O)c1ccc2oc(C(=O)O)c(C)c2c1,u
CCC(=O)OCC(=O)[C@@]1(OC(=O)CC)[C@@H](C)C[C@@H]2[C@H]3CCC4=CC(=O)C=C[C@]4(C)[C@@]3(F)[C@@H](O)C[C@@]21C,-7.8%
CCN(c1ccc(OCC(=O)OCC(=O)Nc2ccc(F)c(F)c2F)cc1)S(=O)(=O)c1ccccc1,-4.2%
Cn1c(=O)cc(OCC(=O)NCCCN2CCN(Cc3ccccc3)CC2)c2ccccc21,-14.5%
COc1ccc(-c2nc(CS(=O)CC(=O)NCc3cccnc3)c(C)o2)cc1OC (stereo unspecified),u
COc1ccc(C)c2sc(=NC(=O)C(C)C)n(C)c12,-12.9%
Cc1cccc(N2CCN(C(=O)CSCc3c(C)noc3C)CC2)c1C,-13.0%
COc1ccc(C2CC(=O)C3=C(C2)Nc2ncnn2C3c2ccccc2)cc1 (stereo unspecified),-13.8%
Cc1ccc(NC(=O)c2c(C)nc3sc(C(=O)NC4CCCC4)c(N)c3c2-c2ccco2)c(C)c1,-6.5%
SMILES,HPGD inh
O=C(O)c1sc2cc(C(F)(F)F)cnc2c1-c1ccccc1,-16.2%
CCn1c(CNC(=O)c2ccc(OC)c(OC)c2)nnc1SCC(=O)Nc1ccccc1,-24.8%
O=C1COc2ccc(-c3csc(=Nc4ccc(OC(F)F)cc4)n3CC3CCCO3)cc2N1 (stereo unspecified),-7.4%
CC(C)NC(=O)c1cnn2c1NC(c1cccs1)CC2C(F)(F)F (stereo unspecified),-11.1%
CCCCC1=CC2=CC(=O)C(C)(OC(=O)CC)C(=O)C2=CN1CCc1ccc(Br)cc1 (stereo unspecified),-3.4%
Cc1ccc(S(=O)(=O)N2CCOCC2)cc1C(=O)NCc1cccnc1,5.8%
Cc1ccc(OCC(=O)Nc2ccc(C)c(S(=O)(=O)N3CCCCC3)c2)c([N+](=O)[O-])n1,-6.7%
CCOc1cccc(C(=O)NC2CCCCC2)c1,28.2µM*
CCCCn1c(N)c(Sc2ccc(Cl)cc2)c(=O)[nH]c1=O,-10.3%
CCOC(=O)C1=C(C)NC(=S)N(C(C)=O)C1c1ccccc1 (stereo unspecified),-18.5%
CC(C)C1Cc2c(sc3[nH]c(=S)n(Cc4ccccc4)c(=O)c23)CO1 (stereo unspecified),u
CN(c1ccccc1C(=O)Nc1ccc2c(c1)OCCO2)S(C)(=O)=O,-10.2%
CCCn1cc2c(c1-c1cccc(C)c1)c(=O)n(C)c(=O)n2C,-15.0%
O=S(=O)(Nc1ccccn1)c1ccc(C2CCCCC2)cc1,-6.3%
O=C(CSc1nnc(Cn2nnc3ccccc32)o1)Nc1ccc(Cl)cc1,-1.3%
COCCCNC(=O)c1cn(C)c(=O)c2cc(OC)c(OC)cc12,-20.5%
CCC(=O)N/N=C(\C)CC(=O)Nc1cc(Cl)ccc1C,-4.3%
Oc1c(Br)cc(CN(Cc2cc(Br)c(O)c(Br)c2)C2CCCCC2)cc1Br,-13.8%
CC(C)CC(=O)Nc1cccc(C(=O)Nc2ccccc2C(=O)O)c1,-15.0%
CCOCC(O)CNc1ccccc1 (stereo unspecified),-10.6%
COc1ccc(NC(=O)c2cc3c(s2)CCC3)cc1S(=O)(=O)N1CCOCC1,-18.8%
CCCCC/C=C\C/C=C\C=C\[C@@H](O)C/C=C\CCCC(=O)O,-7.8%
CCOC(=O)C1CCN(C(=O)Cc2c(C(=O)O)n(C)c3ccccc23)CC1,-22.0%
CC(=O)Nc1ccc(S(=O)(=O)NC2=C(N3CCN(Cc4ccccc4)CC3)C(=O)c3ccccc3C2=O)cc1,-4.3%
COc1ccc2[nH]c(=O)c(CN(Cc3nnnn3CCc3ccccc3)CC3CCCO3)cc2c1 (stereo unspecified),-22.2%
SMILES,HPGD inh
COc1ccc(CC(=O)N/N=C(\C)c2ccccn2)cc1,-4.2%
COc1c(O)ccc(/C=C(\C#N)c2nc3ccccc3[nH]2)c1[N+](=O)[O-],28.2µM*
O=C(COC(=O)CNS(=O)(=O)c1cccc(Br)c1)NC(=O)Nc1ccc2c(c1)OCCO2,-3.1%
Cc1cccc(C(=O)Nc2cc(OCc3cccc(F)c3)c(Cl)cc2Cl)c1,-1.5%
COC(=O)N1CCC[C@@]2(CCN(C(=O)Nc3ccc(OC)cc3)C2)C1,-4.9%
CC1CCCCC1NC1=NCCS1 (stereo unspecified),-7.1%
CCOCCCNC(=O)C1CCCN(S(=O)(=O)CC)C1 (stereo unspecified),-4.8%
CSc1nnc(-c2sccc2OCc2ccccc2)n1C,0.6%
N/C(=N\c1nc2ccccc2o1)NC(=O)c1ccccc1NC(=O)c1ccccc1,-26.2%
CO/N=C\C(=N\Nc1ccc(OC)cc1)C(=O)c1ccccc1,-5.2%
COc1ccc(C(=O)Nc2cccc(-c3cc4ccccc4oc3=O)c2)cc1[N+](=O)[O-],u
Cc1ccc(-c2nc3cccnc3s2)cc1NS(=O)(=O)c1ccc2c(c1)OCCO2,u
COc1ccc(C)c2sc(NC(=O)C3=COCCO3)nc12,-8.8%
CC(C)[C@H](NC(=O)c1ccco1)C(=O)OCC(=O)N1CCc2ccccc21,-0.1%
CCNC(=O)COc1ccc(C=O)cc1OC,-7.4%
COc1ccccc1NC(=O)/C(C#N)=C/C=C/c1ccco1,-0.6%
Nc1nc(CSCCO)nc(Nc2ccccc2)n1,3.6%
COC(=O)c1c(NC(=O)CC2NCCNC2=O)sc2c1CCCC2 (stereo unspecified),-2.3%
Cc1cccc(-c2nc3ccccc3c(=O)n2NC(=O)c2ccc([N+](=O)[O-])c(C)c2)c1,-10.9%
Cc1onc(-c2c(F)cccc2Cl)c1C(=O)OCC(=O)NCc1ccco1,-15.3%
Cc1ccc(S(=O)(=O)N(C)c2c(C)ccc(S(=O)(=O)N3CCN(C)CC3)c2C)cc1,-10.6%
CC1CCCCN1C(=O)Cn1cc(/C=C2/C(=O)Nc3ccccc32)c2ccccc21 (stereo unspecified),-11.7%
CSc1nc(-c2ccccc2)nn1C(=O)c1ccccc1,u
C=CCNC(=S)N/N=C/c1ccc(OCc2ccccc2)cc1,-5.0%
O=C(CSc1ccccn1)N1CCN(c2ccc(Cl)cc2)CC1,-26.4%
SMILES,HPGD inh
O=C(CC1Oc2ccccc2NC1=O)NC1CCCC1 (stereo unspecified),-8.6%
Cc1cc(C)c(S(=O)(=O)c2ccccc2C)c(OCC(C)(C)C)n1,-14.0%
CN(C)c1ccc(-c2nc3n(n2)C(c2cccnc2)C2=C(CC(C)(C)CC2=O)N3)cc1 (stereo unspecified),-12.0%
Cc1c(C)c2c(C)[nH]nc2oc1=O,-12.8%
O=C(NC(=O)N1CCN(c2ccccc2)CC1)c1ccc(Cl)cc1,-12.7%
CCc1c(C)nc2ncnn2c1N1CCCC(C(=O)NCCc2ccc(OC)cc2)C1 (stereo unspecified),-28.7%
COc1ccc(CC2(C)OC(c3ccc(C)cc3)=NN2C(C)=O)cc1 (stereo unspecified),u
CCOC(=O)c1[nH]c2c(c1C)C(=O)CC(c1ccc(N(C)C)cc1)C2 (stereo unspecified),-8.8%
Cn1c(=O)c(C(=O)COC(=O)c2cc(C3CC3)nc3ccccc23)c(N)n(Cc2ccccc2)c1=O,-22.9%&-19.6%
CCOc1ccc(Nc2nc3cc(S(=O)(=O)N(CC)CC)ccc3o2)cc1,3.55µM*
C[C@]12CC[C@@H]3c4ccc(O)cc4CC[C@H]3[C@@H]1CC[C@H]2O,-0.9%
CCN(CCCNC(=O)C1CCN(S(=O)(=O)CC)CC1)c1ccccc1,-3.9%
O=C(COC(=O)CCc1ccc(S(=O)(=O)N2CCOCC2)cc1)NC1CCCC1,-4.2%
Cc1n[nH]c(C)c1S(=O)(=O)N1CCCC(C(=O)NCc2cccs2)C1 (stereo unspecified),-4.7%
COc1cccc(C(=O)Nc2ccc(NC(=O)c3ccco3)nc2)c1,u
Cc1nn(Cc2ccc(Cl)cc2Cl)c(Cl)c1/C=C/C(=O)OCC(=O)NCC(F)(F)F,-0.6%
Cc1noc(C)c1CSCC(=O)Nc1nc2ccc(Oc3ccccc3)cc2s1,-7.7%
O=C(N/N=C/c1ccc(OC(=O)c2cccs2)cc1)c1ccc(F)cc1,-7.8%
O=C(CSc1nnc(Cc2ccccc2)o1)N1CCc2ccccc21,1.6%
CC1CCN(CCCNC(=O)c2cc3c(=O)n(C)c4ccccc4c3n2C)CC1,u
CC(C)(C)NCC(O)c1cc(O)cc(O)c1 (stereo unspecified),-16.6%&-8.4%&-10.4%
CCOC(=O)c1ccc(NC(=O)CSCc2ccco2)cc1,-27.2%
N#Cc1c(-c2ccccc2)c(-c2ccccc2)nn(CC(=O)NNC(=O)Nc2ccc(Cl)c(Cl)c2)c1=O,-21.8%
O=C(NCc1cn(-c2ccccc2)nc1-c1ccccc1)c1cc([N+](=O)[O-])cc([N+](=O)[O-])c1,-7.9%
O=C(O)CCC(=O)N1CCN(c2ccc(C(=O)c3ccc(F)cc3)cc2)CC1,u
SMILES,HPGD inh
O=C(Nc1nc2ccccc2s1)C1CC(=O)N(c2ccc(F)cc2)C1 (stereo unspecified),0.0%
O=C(CSc1nnc(-c2ccccn2)n1Cc1ccco1)c1ccc(Cl)cc1,u
COC(=O)C1C(O)=C(C=NCc2ccccc2)C(=O)CC1(C)C (stereo unspecified),-10.8%
CCN(CC)S(=O)(=O)c1cccc(-c2nnc(SCC(=O)c3ccc(Cl)s3)n2C)c1,-13.1%
Cc1nn2c(N)c(C#N)cnc2c1-c1ccc(Cl)cc1,u
COc1cc(O)c(C(=O)/C=C/c2ccc(O)c(OC)c2)c(OC)c1,u
COc1ccc(OC)c(S(=O)(=O)NCC2CCCO2)c1 (stereo unspecified),-8.0%
CSc1nncc(/C(C)=N\Nc2cccc(C)c2)n1,-13.4%
CCP(=O)(CC)c1cccc(N)c1,-9.6%
COc1ccc(-c2nc(N3CCCCCC3)sc2C(=O)c2ccccc2)cc1,-19.1%
CCOC(=O)c1c(N=CN(C)C)c(C#N)n2c1CCC2,-13.7%
O=C(/C=C/c1ccc(Cl)cc1)N1CCN(c2c(Cl)cccc2[N+](=O)[O-])CC1,-16.2%
CCOC(=O)C(C(C)=O)c1c(Br)c(O)c(O)c2c(C(=O)c3ccc(C)cc3)coc12 (stereo unspecified),7.94µM*
CCCc1cc(=O)[nH]c(Nc2ccc(O)cc2)n1,-5.5%
Cc1ccc(CNC(=O)Cn2ccc3ccccc3c2=O)o1,-13.6%
O=C(NC1CCCC1)C1CCCN(S(=O)(=O)c2ccc(-n3cnnn3)cc2)C1 (stereo unspecified),-7.0%
COc1ccccc1CN1CC[C@@]2(CCCN(C(=O)c3cccn3C)C2)C1,-4.0%
Cc1nc2sc3c(c2c2nc(-c4ccco4)nn12)CCCC3,-7.3%

# Quoted at random: five entries already listed.
SMILES,HPGD inh
Cc1nn(Cc2ccc(Cl)cc2Cl)c(Cl)c1/C=C/C(=O)OCC(=O)NCC(F)(F)F,-0.6%
Cc1cc(C)c(S(=O)(=O)c2ccccc2C)c(OCC(C)(C)C)n1,-14.0%
O=C(CSc1ccccn1)N1CCN(c2ccc(Cl)cc2)CC1,-26.4%
COc1cc(O)c(C(=O)/C=C/c2ccc(O)c(OC)c2)c(OC)c1,u
Cn1c(=O)cc(OCC(=O)NCCCN2CCN(Cc3ccccc3)CC2)c2ccccc21,-14.5%

# Arranged by value in HPGD inh (highest first): six of the compounds above.
SMILES,HPGD inh
Cc1nc2sc3c(c2c2nc(-c4ccco4)nn12)CCCC3,-7.3%
CCP(=O)(CC)c1cccc(N)c1,-9.6%
COC(=O)C1C(O)=C(C=NCc2ccccc2)C(=O)CC1(C)C (stereo unspecified),-10.8%
CSc1nncc(/C(C)=N\Nc2cccc(C)c2)n1,-13.4%
O=C(/C=C/c1ccc(Cl)cc1)N1CCN(c2c(Cl)cccc2[N+](=O)[O-])CC1,-16.2%
COc1ccc(-c2nc(N3CCCCCC3)sc2C(=O)c2ccccc2)cc1,-19.1%
